# HIV TAR-Tat = HIV-1 TAR-Tat binding disruption; z-score (no concentration beside the values); actives 0.6% (n = 100,000); AID 1259389; HIV-1 TAR RNA, Tat peptide displacement FRET; active compounds read high;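 further: score is relative to mean and SD of negative controls; some compounds called inactive have numbers as strong as hits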
# CDC25B-CDK2 inh = human CDC25B-CDK2/CyclinA binding inhibition. P30305+P24941. HTRF CDC25B-CDK2/CyclinA binding, anti-His/anti-Flag; active compounds read high. z-score (test concentration not listed). actives 0.72% (n = 94,000);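 further: score is relative to mean and SD of negative controls; strong numbers were not always called active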
# * marks the source's active call; other numbers are inactive results; . = not tested or not shown.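 How the source made its calls: active means z-score from 3 up in half or more of its runs; inactive means the rest.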
Structure,HIV TAR-Tat,CDC25B-CDK2 inh
Cc1cc(C)c(S(=O)(=O)N2CCCN(S(=O)(=O)c3c(C)cc(C)cc3C)CC2)c(C)c1,.,0.01
CC1CCC(NC(=O)C2(C)Cn3c(cc4occc43)C(=O)N2C2CCCCC2)CC1 (configuration not stated),5.4*,.
CN(C)CCNC(=O)C1CCCN(c2nc3cccnc3s2)C1 (configuration not stated),-0.19,.
Cc1cc(C(=O)N2CCN(C(=O)c3cccs3)CC2)n[nH]1,-0.8,.
O=C(CCCc1nc(-c2ccco2)no1)Nc1cccc(Cl)c1,1.1,-1.3
CN(C)c1ccc(-c2nc3nc[nH]n3c2Nc2ccccc2)cc1,-0.89,-0.56
O=C(Cn1ncc2c(=O)oc3ccccc3c21)Nc1nccs1,2.7,-0.77
CCN(CC)C(=O)c1cc(O)cc(O)c1,.,-0.49
Cn1c(=O)[nH]c(=O)c2[nH]c(N(CCO)Cc3ccccc3)nc21,2.8,-0.67
CCOc1ccc(C)cc1S(=O)(=O)n1cc(C)nc1CC,-0.49,-0.09
O=C1CCSc2ccc(S(=O)(=O)N3CCCC(CN4CCc5ccccc5C4)C3)cc2N1 (configuration not stated),1.5,.
Brc1cccc(-c2nn[nH]n2)c1,0.22,-0.74
O=C(Nc1cc(F)ccc1F)c1cnn(-c2ccc(F)cc2)c1C1CCNCC1,0.46,-0.69
CC(Oc1ccccc1)C(=O)Nc1nc2c(s1)C(=O)CC(C)(C)C2 (configuration not stated),0.93,-0.65
Cc1cccc(N(C)S(=O)(=O)c2cc3[nH]c4c(c3cc2C)C(=O)CC(C)(C)C4)c1,-0.42,.
Cn1c(NC(=O)c2ccc3c(c2)OCO3)cc(=O)n(C)c1=O,1.1,.
COc1ccc(-n2c3c(cc(C(=O)NC4CCSC4=O)c2=O)C(=O)CC(C)(C)C3)cc1 (configuration not stated),-0.24,-2.4
Cc1ccc(S(=O)(=O)N/N=C/c2ccc(-c3cccc([N+](=O)[O-])c3)o2)cc1,.,-0.6
COc1ccc(CC(=O)Nc2ccc(-c3cnco3)cc2)cc1OC,.,-0.96
COc1ccc(OC)c(C2Oc3c(OC)cccc3C3CC(c4cccs4)=NN32)c1 (configuration not stated),.,-3.6

# (further entries)
Structure,HIV TAR-Tat,CDC25B-CDK2 inh
CCOc1nc(C)ccc1-c1noc(-c2ccccc2C)n1,2.7,-2.2
CCOC(=O)c1cc(C(=O)OC)c(C)nc1N1CCCN(Cc2ccc(F)cc2)CC1,.,-0.83
O=c1c(S(=O)(=O)c2ccc(F)cc2)c[nH]c2c(F)cccc12,-0.25,-2.1
C=CCOC(=O)C1=C(C)NC2=C(C(=O)CC(C)(C)C2)C1c1ccc(OC)c(Br)c1 (configuration not stated),-0.22,-1.9
O=C(CSc1nnc(-c2ccncc2)n1Cc1ccco1)c1c[nH]c2ccccc12,0.86,.
Cn1c(C(=O)N/N=C/c2cccs2)cnc1SCc1ccc(Cl)cc1,.,0.23
CCCc1nn2c(=O)cc(COC(=O)COc3ccccc3F)nc2s1,-0.72,.
O=C(C1CCN(S(=O)(=O)c2cccc3cccnc23)CC1)N1CCN(C2CCCCC2)CC1,0.11,.
Cn1c(=O)oc2ccc(C(=O)N3CCN(c4ccc(F)cc4)CC3)cc21,2,.
CCOC(=O)c1[nH]c(C)c(C(=O)NC(C)(C)CC)c1C,1.8,0.2
O=C1c2ccccc2C(O)(c2ncc[nH]2)N1CCc1ccccc1 (configuration not stated),.,-0.06
CCN(CC)c1sc(S(C)(=O)=O)nc1S(=O)(=O)c1ccc(C)cc1,1.1,-0.15
CC1(C)CC(=O)C2=C(C1)Nc1ccccc1S2,.,-0.1
C=CCn1c(C2CCCO2)nc2ccccc21 (configuration not stated),-0.54,-1.5
COc1ccc(C2C(C(=O)c3cccs3)=C(O)C(=O)N2CCCn2ccnc2)cc1 (configuration not stated),1.6,0.23
CCCC(O)c1nc2ccccc2n1Cc1ccc(F)cc1 (configuration not stated),1.2,-1.3
CC(C)(C)c1nnc2sc(SCC(=O)Nc3ccc(F)cc3)nn2c1=O,-0.16,.
Cc1nn(CCCC(=O)N2CCCCC2)c(=O)c2cc3sccc3n12,0.03,-0.76
CC(C)CC1CC(C)(c2csc(Nc3ccccc3)n2)OC1=O (configuration not stated),1.6,-1.4
O=C(Cn1c(=O)oc2cc(S(=O)(=O)N3CCCCCC3)ccc21)N1CCOCC1,.,-1.7

# Sorted by number of heavy atoms (largest number first): four of the compounds above
Structure,HIV TAR-Tat,CDC25B-CDK2 inh
CC(C)(C)c1nnc2sc(SCC(=O)Nc3ccc(F)cc3)nn2c1=O,-0.16,.
O=C1c2ccccc2C(O)(c2ncc[nH]2)N1CCc1ccccc1 (configuration not stated),.,-0.06
CC(C)CC1CC(C)(c2csc(Nc3ccccc3)n2)OC1=O (configuration not stated),1.6,-1.4
CCOc1nc(C)ccc1-c1noc(-c2ccccc2C)n1,2.7,-2.2

# (more compounds)
Structure,HIV TAR-Tat,CDC25B-CDK2 inh
Cc1nn(CCCC(=O)Nc2ccccc2Br)c(=O)c2c1sc1ccccc12,1.6,-2.6
CCc1ccc(S(=O)(=O)Nc2c(C)nc3nc[nH]n3c2=O)cc1,1.8,-0.87
CCc1ccc(C2CC(=O)Nc3cc4c(cc32)OCCO4)cc1 (configuration not stated),0.55,4.4*
Cc1cc(-c2ccc(C(C)C)c(S(=O)(=O)N3CCc4ccccc43)c2)on1,0.89,.
O=C(Nc1ccccc1Cl)c1cnn(-c2ccccc2)c1-n1cccc1,1.5,-1.4
CCOC(=O)N/N=C(C)/C(C)=N/NC(=O)OCC,.,-0.95
CN1CCN(C(=O)c2cc(S(=O)(=O)N3CCCCC3)c[nH]2)CC1,1.4,.
Cc1cccc(Nc2nc3ccccc3n3nnnc23)c1C,-3.2,-3.1
COCCCNC(=O)CN1C(=O)c2ccccc2S1(=O)=O,-0.13,3.8
Cc1cc(-c2ccc(C(C)C)c(S(=O)(=O)Nc3ccccc3)c2)on1,1.3,.
O=S(=O)(c1ccc(Br)cc1)N1CCN(c2ncccn2)CC1,.,-2.1
O=C(Nc1c(C(=O)Nc2ccccc2F)oc2ccccc12)c1cc2ccccc2o1,0.96,-1.2
COc1ccc(Cl)cc1N1C(=O)CSC1c1ccc(Cl)cc1 (configuration not stated),.,-0.81
CC1CC(=O)Nc2ccccc2N1C(=O)c1cccs1 (configuration not stated),0.83,-0.98
O=c1oc(-c2ccc(Br)cc2)nc2scc(-c3cccs3)c12,2.7,-2.9
O=C(CN1Cc2ccccc2C1=O)NCCCN1CCCC1,-1.8,.
CN1CCN(c2nc(N3CCN(Cc4ccccc4)CC3)nc3c2cnn3C)CC1,0.86,.
CCOC(=O)CCCn1nc(C)c2sc3ccccc3c2c1=O,2.6,-0.5
COc1cc(C(=O)NC2CC(C)CC(C)(C)C2)cc(OC)c1OC (configuration not stated),.,1.2
CCN(C(=O)c1ccc2c(c1)OCO2)c1nc(-c2ccc(C)cc2)cs1,2.7,-2.2

# (continued)
Structure,HIV TAR-Tat,CDC25B-CDK2 inh
CC(=O)N1N=C(c2ccc(Br)cc2)OC1c1nc2nc(C)cc(C)n2n1 (configuration not stated),0.66,.
C=CCOc1ccc(C2C3=C(CC(C)(C)CC3=O)Nc3[nH]c(=O)[nH]c(=O)c32)cc1OC (configuration not stated),0.07,-2.6
O=C(Nc1ccc(F)cc1)Nc1nnc(N2CCCC2)s1,0.76,-1.7
Cc1cccc(NS(=O)(=O)c2ccc(CN3C(=O)c4cccnc4C3=O)s2)n1,-0.09,.
CCc1ccc(-c2cc(C)no2)cc1S(=O)(=O)NCCc1cccs1,1.1,.
Cc1ccc(-n2ccc(=O)c(C(=O)Nc3nonc3-c3ccc(Cl)cc3)n2)cc1,0.96,-0.16
CCOc1ccc(-c2cc(N)n(S(=O)(=O)Cc3ccccc3)n2)cc1,0.34,0.33
CC1CCCC(NC(=O)c2cc(S(=O)(=O)N3CCCCC3)c[nH]2)C1C (configuration not stated),2.2,.
Cc1nc(NC(C)C(=O)O)c2nc(C)oc2n1 (configuration not stated),.,-0.91
CC1CCCCC1NC(=O)COCc1cc(-c2cccs2)on1 (configuration not stated),0.02,.
O=C(CCCCCN1C(=O)c2cccc3cccc(c23)C1=O)NO,-0.34,.
CCOC(=O)C1C2C=CC3(CN(C(c4ccccc4)c4ccccc4)C(=O)C13)O2 (configuration not stated),0.47,-0.47
Cc1nn(-c2ccccc2)c2[nH]cc(C(=O)O)c(=O)c12,2.4,-1.6
O=C(CSc1cccc(C(F)(F)F)c1)N1CCC(C(F)(F)F)CC1,.,0.21
CCCc1nn2c(=O)cc(COC(=O)COc3ccc(OC)cc3)nc2s1,1.2,.
COc1ccc(OC)c(NC(=O)CN(C)S(=O)(=O)c2ccc3[nH]c(=O)oc3c2)c1,1.4,.
CCCCCOc1ccc(/C=C/c2c([N+](=O)[O-])c(=O)n(C)c(=O)n2C)cc1,1.5,-0.45
Cc1nn(S(=O)(=O)c2ccc(C(C)(C)C)cc2)c(C)c1S(=O)(=O)N(C)c1ccccc1,1.1,.
CCOC(=O)C1=C(C)NC2=C(C(=O)C(C(=O)OC)C(C)C2)C1c1ccccc1OC(C)C (configuration not stated),2.9,-1.8
COc1ccc(-c2cccc(NS(=O)(=O)c3ccc(Br)cc3)c2)nn1,0.75,.

# Next part:
mol	HIV TAR-Tat	CDC25B-CDK2 inh
CCc1ccc(S(=O)(=O)NCCc2sc(-c3ccc(OC)c(OC)c3)nc2C)s1	0.72	.
Fc1ccc2[nH]c(CN3CCN(c4ccccn4)CC3)cc2c1	.	-0.61
CCS(=O)(=O)N1CCN(Cc2c[nH]c3ccccc23)CC1	-0.39	-0.03
C=CCNC(=S)N1CCN(C(=S)NCC=C)CC1	.	2
COCCCN(C(C)c1ccccn1)S(=O)(=O)c1cc2c(cc1Cl)NC(=O)CO2 (configuration not stated)	-3.9	.
Cc1cc(Oc2ccccc2F)nc(N)n1	0.13	-0.37
CN1Cc2cccc(C(=O)O)c2C1=O	1.5	-0.51
CNC(=O)c1c(NC(=O)c2csnn2)sc2c1CCCC2	0.62	-1.3
O=C(OCCOc1ccc(Cl)cc1Cl)c1ccccc1Cl	.	3.9
Cc1ccc(C2=NS(=O)(=O)N(C)C(C(=O)Nc3cc(C)on3)=C2)cc1	1.6	-1.6
O=C1c2nccnc2C(=O)N1c1ccccc1F	1.4	0.02
O=C(c1ccc2c(=O)n3c(nc2c1)CCCCC3)N1CCCc2ccccc21	-0.8	-0.7

# The list goes on:
mol	HIV TAR-Tat	CDC25B-CDK2 inh
CCOCCCNC(=O)CCCn1ncn2c(cc3occc32)c1=O	0.49	-0.25
C=CCn1c(SCC(=O)Nc2ccc3c(c2)OCO3)nc2c([nH]c3ccccc32)c1=O	1.6	.
O=C1C(=O)N(CCCN2CCOCC2)C(c2cccc(Br)c2)/C1=C(\O)c1ccccc1 (configuration not stated)	0.74	-0.52
Cc1ccc(S(=O)(=O)NC(c2ccccc2)c2nnc(-c3ccccc3)o2)cc1 (configuration not stated)	0.92	-1.2
CC1CC(=O)c2cn3nc(-c4cccnc4)nc3nc2C1 (configuration not stated)	3	-2.7
CCN1CCc2c(sc(-n3cccc3)c2CNC(=O)Nc2ccccc2)C1	-6.2	.
O=C(Cn1ncc2c([nH]c3ccccc32)c1=O)N1CCN(c2ccccn2)CC1	1.1	.
O=C1COc2cc(S(=O)(=O)NCCCc3ccccc3)c(Cl)cc2N1	1.4	.
O=C(NCCc1ccccc1)c1cnc2sc(N3CCCC3)nn2c1=O	0.38	.
CCc1c(CCNC(=O)Nc2ccccc2)csc1C	1.9	.
CCC(C)NS(=O)(=O)c1cccc(S(=O)(=O)c2cccc(S(=O)(=O)NC(C)CC)c2)c1 (configuration not stated)	2	.
COC(=O)CSC1=C(C#N)C(c2ccc(F)cc2)CC(=O)N1 (configuration not stated)	.	-1

# (further entries)
mol	HIV TAR-Tat	CDC25B-CDK2 inh
COc1cc(NS(=O)(=O)c2cc3[nH]c4c(c3cc2C)C(=O)CCC4)cc(OC)c1	1.4	.
CCOc1ccc(S(=O)(=O)N(C)CCO)cc1-c1nc2c(C(C)(C)C)nn(C)c2c(=O)[nH]1	.	-0.6
O=C(Cn1c(-c2cccs2)cc2ccccc21)NCC1CCCO1 (configuration not stated)	0.53	1.7
COc1cccc(C2C(C#N)=C(N)OC3=C2C(=O)CC(c2ccccc2)C3)c1OC (configuration not stated)	.	-1.8
O=S(=O)(c1ccccc1Cl)N1CCN(c2nc3ccccc3n3cccc23)CC1	-0.45	-0.8
CC(C)CCNC(=O)CCCN1C(=O)c2cccnc2Oc2ccc(Cl)cc21	0.01	.
O=C1NC(=O)C2C1ON(c1ccccc1)C2c1cccs1 (configuration not stated)	0.63	-0.4
CCn1c(=O)c(=O)n(CC)c2cc(S(=O)(=O)c3ccc(F)cc3)c(N)cc21	1.5	.
COc1cccc(C(=O)c2sc3nsc(SCc4ccc(F)cc4)c3c2N)c1	.	-0.2

# A different layout for part of the listing above:
# Second line of a record – HIV TAR-Tat | CDC25B-CDK2 inh
- CCOc1ccc(S(=O)(=O)N(C)CCO)cc1-c1nc2c(C(C)(C)C)nn(C)c2c(=O)[nH]1
→ . | -0.6
- O=C(Cn1c(-c2cccs2)cc2ccccc21)NCC1CCCO1 (configuration not stated)
→ 0.53 | 1.7
- COc1cccc(C2C(C#N)=C(N)OC3=C2C(=O)CC(c2ccccc2)C3)c1OC (configuration not stated)
→ . | -1.8
- O=S(=O)(c1ccccc1Cl)N1CCN(c2nc3ccccc3n3cccc23)CC1
→ -0.45 | -0.8
- CC(C)CCNC(=O)CCCN1C(=O)c2cccnc2Oc2ccc(Cl)cc21
→ 0.01 | .
- O=C1NC(=O)C2C1ON(c1ccccc1)C2c1cccs1 (configuration not stated)
→ 0.63 | -0.4
- CCn1c(=O)c(=O)n(CC)c2cc(S(=O)(=O)c3ccc(F)cc3)c(N)cc21
→ 1.5 | .

# Screening data as filed in PubChem BioAssay.

# Compounds as they come; overall some 0.9% were active at least once.
